High-throughput results as filed in PubChem.
miR-21 FLuc = miR-21 reporter, rising signal; HeLa miR-21 FLuc reporter, luciferase, 48 h; Potency, µM (top dose mostly 38.3 µM), inactives show at the highest dose reporter change, positive = more light; 340,000 tested, under 10 active; active = well fitted rising curve with a large enough effect; inconclusive = small, poorly fitted or top-dose-only effect; inactive = no such curve, though single readings can be large or run the other way;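 note: % of control where 0% means no effect; miR-21 action dims this reporter so a rising signal means less miR-21 action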
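HeLa cells stably expressing CMV-driven firefly luciferase with a downstream miR-21 binding sequence, endogenously expressing miR-21, were treated with titrations (up to about 40uM final) for 48 hours at 37 degree Celsius. Luciferase luminescence was read after lysis.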
GLA inh pH 4.5 = blocks human alpha-galactosidase A at pH 4.5; 230,000 tested, under 10 active; AID 1467; purified enzyme, 4-MU-alpha-Gal fluorescence, pH 4.5; P06280; activity change, negative = inhibition, % at 105 µM; inconclusive = small, poorly fitted or top-dose-only inhibition, or a rising curve; inactive = flat fitted curve, though single readings scatter; no compound was filed as active;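 note: 0% = full activity with enzyme and -100% = basal without enzyme; dose as in the result columns while the protocol names 77 µM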
Rango complex inh = inhibitors of Rango-importin beta complex formation; Q14974; Rango CFP/YFP FRET sensor + importin beta, 45 min; Potency, µM (series often up to 92.2 µM), for the others: at the highest dose inhibition of complex formation; actives 0.031% (n = 340,000); AID 540263; active = rising FRET ratio curve, often small or poorly fitted; inconclusive = mostly compound fluorescence or quenching in the first reads; inactive = flat curves in all reads;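 note: potency is the fitted concentration of half-maximal effect; 0% = DMSO wells and 100% = buffer wells lacking importin beta; nearly all actives have a fitted effect of over 15% in size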
Target sequence (Q14974 whole entry, looked up): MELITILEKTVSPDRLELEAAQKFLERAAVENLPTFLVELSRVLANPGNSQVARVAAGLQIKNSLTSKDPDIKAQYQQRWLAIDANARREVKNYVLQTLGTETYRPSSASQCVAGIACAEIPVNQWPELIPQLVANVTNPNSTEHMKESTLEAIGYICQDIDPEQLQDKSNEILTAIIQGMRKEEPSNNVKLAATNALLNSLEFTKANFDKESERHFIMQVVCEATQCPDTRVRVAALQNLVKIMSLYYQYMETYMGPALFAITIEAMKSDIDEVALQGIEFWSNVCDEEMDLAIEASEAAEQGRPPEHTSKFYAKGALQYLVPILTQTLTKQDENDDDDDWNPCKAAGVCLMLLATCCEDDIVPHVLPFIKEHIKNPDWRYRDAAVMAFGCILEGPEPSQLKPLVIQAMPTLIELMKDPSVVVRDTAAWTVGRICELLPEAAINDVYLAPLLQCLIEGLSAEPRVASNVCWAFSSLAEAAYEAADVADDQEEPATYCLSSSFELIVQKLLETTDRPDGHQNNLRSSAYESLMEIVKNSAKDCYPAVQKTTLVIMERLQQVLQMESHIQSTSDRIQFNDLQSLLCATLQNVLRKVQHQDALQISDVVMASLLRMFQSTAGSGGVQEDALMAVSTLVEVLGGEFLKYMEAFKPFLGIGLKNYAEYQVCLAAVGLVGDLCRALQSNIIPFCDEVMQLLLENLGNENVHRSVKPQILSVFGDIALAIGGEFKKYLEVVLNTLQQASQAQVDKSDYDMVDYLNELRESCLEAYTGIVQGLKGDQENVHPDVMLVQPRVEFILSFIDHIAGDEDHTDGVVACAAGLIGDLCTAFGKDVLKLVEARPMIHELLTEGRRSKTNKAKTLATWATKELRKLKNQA
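FRET biosensor (snurportin 1 IBB flanked by EYFP and cerulean), 50 nM, with compound 5 min, then 0.125 microM importin beta in PBS, 1 mM DTT, 0.02% Tween-20, 0.1% BSA. CFP/YFP ratio read after 45 min at room temperature; pre-read flags interference.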
Rango release inh = prevents RanGTP from dissociating the Rango-importin beta complex; actives 0.071% (n = 340,000); Biochemical FRET Rango-importin beta, RanGTP-induced dissociation; Potency, µM (top dose mostly 46.1 µM), inactives show at the top dose activity change, negative = inhibition; O95149+P62826; active means falling FRET ratio curve, often poorly fitted, with flat reads before Ran was added; inconclusive means other falling curves, or compound fluorescence or quenching; inactive means flat or rising ratio curve;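 note: potency is the fitted concentration of half-maximal effect; % of control where 0% means no effect; nearly all actives have a fitted effect of over 45% in size; -100% = wells without RanGTP and RCC1; the record marks most hits as doubtful in a second field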
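Compounds sat 5 min at room temperature with 0.1 uM Rango biosensor plus 0.25 uM importin beta, then FRET pre-read. RanGTP-RCC1 (0.6 uM Ran, 2mM GTP, 0.2 uM RCC1) added for 45 min, and the CFP/YFP post-read measured blocked complex dissociation.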
Numbers without * were called inactive; ? = inconclusive; . = not tested or not shown; & = joins results of further samples; [ ] = dose if it differs, or a comment. Only part of the results is shown. The share of hits here may be higher or lower than overall.

SMILES	miR-21 FLuc	GLA inh pH 4.5	Rango complex inh	Rango release inh
CC1CC1C(=O)Nc1nc(-c2ccccn2)cs1 (stereo unspecified)	-21%	-1	2.8%	-7%
COc1ccc(S(=O)(=O)n2nc(OC(=O)c3cccs3)cc2NC(=O)c2cccs2)cc1	-2%	-4	-3.9%	49%
O=C(NCC(=O)N(c1ccccc1)C(C(=O)NC1CCCC1)c1ccncc1)c1ccco1 (stereo unspecified)	.	.	8.4%	8%
CCOC(=O)C1=C(c2ccccc2)c2ccccc2OC1C(=O)OCC (stereo unspecified)	.	-13	-0.6%	-3%
CC(=O)c1ccc(OCCCC(=O)OCC(=O)N2CCN(S(=O)(=O)c3ccc(C)cc3C)CC2)cc1	.	.	?	-16%
CC1CC(C)(C)NC(=S)S1 (stereo unspecified)	-2%	-5	-2.1%	18%
Cc1ccc(S(=O)(=O)ON=C2CCN(S(=O)(=O)c3ccccc3)CC2)cc1	0%	5	0.4%	-13%
COC(=S)Nc1cccc(C(F)(F)F)c1	-2%	-2	-1.8%	26%
CC(=O)N1CCN(S(=O)(=O)c2cccc(C(=O)Nc3ccc(F)c(F)c3)c2)CC1	10%	.	-0.2%	8%
Cc1ccc(S(=O)(=O)N(C)/N=C/c2ccc(N(C)C)cc2)cc1	-25%	.	-0.8%	2%
c1ccc2cc(N3CCCCC3)ccc2c1	.	.	0.2%	1%
COc1ccc(N2C(=O)CSC23C(=O)N2CCCc4cccc3c42)cc1 (stereo unspecified)	-8%	-3	-1.6%	-12%
O=C(N/N=C/c1cccn1-c1cccc(C(=O)O)c1)Nc1ccccc1	-34%	1	?	?
CC(=O)c1sc2nc(-c3ccccc3)cc(C)c2c1N	-11%	.	?	?
CCOc1cc2[nH]c(=O)n(Cc3ccccc3)c(=O)c2cc1OCC	2%	15	0.3%	0%
CN1CCN(Cc2c(O)ccc3c2oc(=O)c2ccccc23)CC1	-15%	-8	2.3%	1%
O=C(CCCn1c(=S)[nH]c2ccsc2c1=O)NC1CCCCC1	2%	.	1.7%	-1%
CN1CCN(C(=O)c2ccc(CN(c3ccccc3)S(=O)(=O)c3ccccc3)cc2)CC1	0%	3	-4.1%	7%
CCOc1cc(N2CCOCC2)c(OCC)cc1NC(=O)CN1C(=O)C2C3C=CC(C3)C2C1=O (stereo unspecified)	-4%	4	2.4%	-26%
Cc1ccccc1C(=O)c1cccn1CC(=O)NCc1ccco1	-3%	1	-2.7%	-14%
O=C(O)[C@H]1CC=C[C@H]2CCN(Cc3ccc(Cl)c(Cl)c3)C(=O)[C@@H]12	.	3	0.8%	6%
CSc1cccc(NC(=O)CCNS(=O)(=O)c2ccc3[nH]c(=O)oc3c2)c1	-1%	.	1.3%	6%
Cc1cc(C(=O)NC2CCCC2)on1	-1%	2	-1.8%	20%
COC(=O)c1ccccc1NC(=O)C12CCC(C)(C(=O)O1)C2(C)C (stereo unspecified)	-7%	2	0.1%	10%
Cn1cccc1/C=C(/C#N)C(N)=S	5%	-7	-10.0%	-7%
CCOc1ccc(-c2onc(C(F)(F)F)c2-c2cscn2)c(O)c1	20%	13	4.6%	17%
Cc1ccc2c(c1)C(=O)C(=O)N2Cc1ccc(Cl)cc1	.	.	4.2%	14%
O=C(CSc1nnnn1C1CCCCC1)NCc1ccc2c(c1)OCO2	1%	6	-1.6%	2%
COc1cc(OC)c(S(=O)(=O)N2CCN(C(=O)c3ccco3)CC2)cc1NC(C)=O	-2%	.	-0.5%	46%
O=C(N/N=C/c1cccc([N+](=O)[O-])c1)c1ccc(Br)cc1	6%	1	4.9%	37%
CCCN(c1ccc(OCC)cc1)c1ncnc2nc[nH]c12	2%	-2	3.0%	0%
COC(=O)c1cccc(Nc2nc3ccccc3nc2C)c1	7%	6	?	?
CCOC(=O)N1CCc2c(sc(NC(=O)Cc3ccccc3)c2C(=O)c2ccc(OC)cc2)C1	-6%	-5	0.0%	-4%
COc1cc2c(cc1OC)C1(CCCC1)C(N)=C2C#N	-2%	-9	-2.5%	-12%
COCCN(C(=O)c1ccc(N2CCCC2=O)cc1)c1c(N)n(Cc2ccccc2)c(=O)[nH]c1=O	.	.	-5.2%	7%
CSCC[C@H](NC(=O)c1ccc2ccccc2c1)C(=O)N1CCC2(CC1)NCCc1[nH]cnc12	-3%	.	3.2%	5%
CCOc1cc(C(=O)Nc2cccc(OCC(=O)N3CCOCC3)c2)cc(OCC)c1OCC	?	.	6.7%	-1%
CCc1nnc(NC(=O)c2ccc(Cl)c(S(=O)(=O)N3CCc4ccccc43)c2)s1	5%	3	?	-8%
N#CCN=C(c1ccccc1)c1ccccc1	.	.	4.0%	4%
CCCCCn1c(SCCC(C)C)nc2c1c(=O)[nH]c(=O)n2C	-13%	-6	-1.3%	5%
CC12CCC(C[N+](C)(C)C1)C2(C)C (stereo unspecified)	3%	0	1.9%	14%
Clc1ccc(-n2ncc3c(NCc4cccs4)ncnc32)cc1	24%	-8	-0.4%	-7%
COCCCNc1nc(N)c([N+](=O)[O-])c(NC2CCCCC2)n1	-22%	.	7.8%	16%
O=C(Nc1c2c(nn1-c1ccc(F)cc1)CS(=O)(=O)C2)c1ccc(Br)o1	-1%	.	-2.2%	8%
CCOC1Cc2ccccc2N(C(N)=O)c2ccccc21 (stereo unspecified)	-2%	-3	2.7%	5%
CN(C)S(=O)(=O)c1ccc(C(=O)NCCSc2ccccc2)cc1	-47%	5	-3.1%	-12%
CCOC(=O)c1c(N)sn(-c2ccccc2)c1=S	-10%	-4	3.3%	-3%
CC(=O)c1ccc(-n2c(C)c(C(C)=O)c3cc(O)ccc32)cc1	4%	.	-3.9%	9%
CCCn1c(SCC(N)=O)nnc1-c1ccco1	-2%	-2	3.9%	22%
COc1ccc(S(=O)(=O)NCC2CCC(C(=O)N3CCC4(CC3)OCCO4)CC2)cc1 (stereo unspecified)	-1%	-8	4.5%	?

Further compounds follow.
SMILES	miR-21 FLuc	GLA inh pH 4.5	Rango complex inh	Rango release inh
CCCCN(C)C(=O)CC(NS(=O)(=O)c1ccc(NC(C)=O)cc1)C(C)C (stereo unspecified)	0%	-4[21.1 µM]	3.6%	-7%
O=C(Cc1ccc(F)cc1)N1CCN(c2ccc([N+](=O)[O-])cc2)CC1	23%	.	-0.2%	10%
CCc1ccccc1NC(=O)/C(C#N)=C\c1ccc(Sc2ccccc2)o1	-11%	-4	?	?
N#Cc1ccc(OCCOCCNC2CCCC2)cc1	-11%	4	-2.1%	25%
CCCC(=O)NC(c1ccc(Cl)cc1Cl)c1ccc2cccnc2c1O (stereo unspecified)	20%	.	?	-12%
COC(=O)c1cc(NC(=O)Nc2cccc(Cl)c2)ccc1Cl	20%	-8	2.6%	7%
CCn1c(SCC(=O)NCCc2ccccc2)nnc1-c1cccs1	-8%	9	-1.2%	-1%
O=C(N/N=C/c1ccncc1)C12CC3CC(CC(C3)C1)C2	-24%	4	5.2%	-4%
CCCCN1C(C)=CC(=C2C(=O)c3ccccc3C2=O)C=C1C	-26%	7	?	-14%
CCOC(=O)c1c(-c2ccccc2)nc2ccc(Cl)cn12	-13%	-10	3.9%	-4%

Copied from above for reference:
SMILES	miR-21 FLuc	GLA inh pH 4.5	Rango complex inh	Rango release inh
CCCCN1C(C)=CC(=C2C(=O)c3ccccc3C2=O)C=C1C	-26%	7	?	-14%
CCOC(=O)c1c(-c2ccccc2)nc2ccc(Cl)cn12	-13%	-10	3.9%	-4%

Additional structures:
SMILES	miR-21 FLuc	GLA inh pH 4.5	Rango complex inh	Rango release inh
Cn1c(=O)cc2c3c(c(N4CCCCC4)ccc31)C(=O)c1ccccc1-2	0%	-4	2.8%	3%
Nc1nc(SCC(=O)Nc2ccc(Cl)cn2)n[nH]1	4%	8	-1.5%	-4%
O=S(=O)(N[C@H](CO)Cc1ccccc1)c1ccc(Br)cc1F	.	.	5.8%	?
CC(C)(C)c1cc(C(=O)N/N=C/c2ccccc2O)n(-c2ccccc2)n1	6%	-11	-2.1%	-13%
O=C(N/N=C/c1ccncc1)c1ccccc1OCc1ccc(Br)cc1	14%	-3	0.5%	-5%
COc1ccc(C(C)=O)cc1COc1cc(C)c(Cl)c(C)c1	1%	4	1.5%	15%
CS(=O)(=O)N1CCC(C(=O)Nc2cccc(C(F)(F)F)c2)CC1	-7%	-10	0.9%	3%
O/N=C\c1cccn1-c1ccc(Br)cc1	-1%	-13	8.8%	12%
O=C(O)CCC(=O)NCCn1c(-c2ccccc2)csc1=Nc1ccccc1	-18%	5	4.1%&-1.7%	-5%&1%
CC1CCCN(c2ccc(C(=O)Nc3ccc4c(c3)OCO4)cc2[N+](=O)[O-])C1 (stereo unspecified)	6%	-6	5.2%	8%

Laid out differently: results already given
miR-21 FLuc,GLA inh pH 4.5,Rango complex inh,Rango release inh,SMILES
-18%,5,4.1%&-1.7%,-5%&1%,O=C(O)CCC(=O)NCCn1c(-c2ccccc2)csc1=Nc1ccccc1
6%,-6,5.2%,8%,CC1CCCN(c2ccc(C(=O)Nc3ccc4c(c3)OCO4)cc2[N+](=O)[O-])C1 (stereo unspecified)

(list continues)
SMILES	miR-21 FLuc	GLA inh pH 4.5	Rango complex inh	Rango release inh
CCN(CC)S(=O)(=O)c1cccc(-c2nnc(SC(C)C(=O)NCCC3=CCCCC3)o2)c1 (stereo unspecified)	18%	-3	-4.2%	18%
CN1C=CC(=C2C(=O)c3ccccc3C2=O)C=C1	-17%	-2	.	.
O=C1NCCN(Cc2ccc(-c3ccccc3)cc2)C1CC(=O)N1CCN(CCO)CC1 (stereo unspecified)	-1%	-5	?	5%
O=C(NCC1COc2ccccc2O1)c1ccc(NC(=O)C2CCCO2)cc1 (stereo unspecified)	-30%	-1	-2.6%	4%
O=C(COC(=O)C1CCCCC1)Nc1ccc(S(=O)(=O)N2CCOCC2)cc1	5%	-16	0.5%	3%
O=C(CN1C(=O)C(=O)N(Cc2ccccc2)C1=O)Nc1cc(Cl)cc(Cl)c1	-2%	-1	-6.2%	16%
Cn1cccc1/C=N/NC(=O)c1ccncc1	-6%	?	-0.8%	-6%
N#Cc1ccccc1OCCCN1CCC(Cc2ccccc2)CC1	18%	.	-0.4%	27%
COc1cccc(-c2noc(C3CCCN(C(=O)Cc4ccccc4)C3)n2)c1 (stereo unspecified)	-16%	-2	5.7%	3%
CN1CCN(C(=O)/C(=C/c2ccc([N+](=O)[O-])cc2)NC(=O)c2ccccc2)CC1	-4%	.	?	7%

Brought forward from above: 2 compounds; new compounds follow.
SMILES	miR-21 FLuc	GLA inh pH 4.5	Rango complex inh	Rango release inh
COc1cccc(-c2noc(C3CCCN(C(=O)Cc4ccccc4)C3)n2)c1 (stereo unspecified)	-16%	-2	5.7%	3%
CN1CCN(C(=O)/C(=C/c2ccc([N+](=O)[O-])cc2)NC(=O)c2ccccc2)CC1	-4%	.	?	7%
COc1ccc(NC(=O)Cn2nc(C(=O)O)c3ccccc3c2=O)cc1Cl	0%	.	-3.0%	48%
CC(NC(=O)OC(C)(C)C)C(=O)NC(CCC(=O)OCc1ccccc1)C(N)=O (stereo unspecified)	0%	5	2.5%	-13%
O=[N+]([O-])CC(c1ccccc1)c1c[nH]c2ccccc12 (stereo unspecified)	.	.	4.2%	-11%
CC(=O)Nc1ccc(S(=O)(=O)NCCC(=O)NNC(=O)c2ccccc2O)cc1	.	.	5.9%	0%
NC(=O)NC(=O)COC(=O)CNS(=O)(=O)c1ccc(F)c(F)c1F	-1%	3	-4.9%	10%
CCCN1CCN(CC(=O)NCC(=O)Nc2cccc(C)c2C)CC1	.	.	-3.2%	-1%
Cc1ccc(-c2nc(CS(=O)CC(=O)NC(C)CCc3ccccc3)c(C)o2)cc1 (stereo unspecified)	10%	.	-0.5%	-7%
Cc1ccc(C(=O)C(C)OC(=O)c2ccc(Cl)nc2)cc1 (stereo unspecified)	.	.	-1.7%	13%
CC(=O)n1cc(N(C(=O)CCl)c2ccc(C)cc2)c2ccccc21	?	-16	0.7%	-7%
CCOC(=O)C1=C(c2ccccc2)NC(=S)NC1c1ccc(C)c([N+](=O)[O-])c1 (stereo unspecified)	-1%	5	-2.5%	-3%
C=C(C)CN1C(=O)C(=O)N(CC(=C)C)C1=O	0%	5	0.1%	2%
